TRPML1 inh: qHTS for Inhibitors of the Human Mucolipin Transient Receptor Potential 1 (TRPML1); 390,000 tested, 0.02% active; activity change, negative = inhibition, % (test concentration not listed); TRPML1-inducible cells, Ca2+ dye fluorescence, FDSS; hits give low values; inhibition of EC80 agonist-evoked calcium signal; Mucolipin-1 (Homo sapiens), Q9GZU1; in the data active means activity change below about -50%; inconclusive means about -30% to -50%; inactive means above about -30%;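 further: stimulus is agonist 54-4 at its EC80 concentration; on the % scale 0 is the no-effect control and ±100 the full control effect; compound concentration not given in the record; the text of the record puts the active cut at -80%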
Target sequence (Q9GZU1 whole entry, looked up): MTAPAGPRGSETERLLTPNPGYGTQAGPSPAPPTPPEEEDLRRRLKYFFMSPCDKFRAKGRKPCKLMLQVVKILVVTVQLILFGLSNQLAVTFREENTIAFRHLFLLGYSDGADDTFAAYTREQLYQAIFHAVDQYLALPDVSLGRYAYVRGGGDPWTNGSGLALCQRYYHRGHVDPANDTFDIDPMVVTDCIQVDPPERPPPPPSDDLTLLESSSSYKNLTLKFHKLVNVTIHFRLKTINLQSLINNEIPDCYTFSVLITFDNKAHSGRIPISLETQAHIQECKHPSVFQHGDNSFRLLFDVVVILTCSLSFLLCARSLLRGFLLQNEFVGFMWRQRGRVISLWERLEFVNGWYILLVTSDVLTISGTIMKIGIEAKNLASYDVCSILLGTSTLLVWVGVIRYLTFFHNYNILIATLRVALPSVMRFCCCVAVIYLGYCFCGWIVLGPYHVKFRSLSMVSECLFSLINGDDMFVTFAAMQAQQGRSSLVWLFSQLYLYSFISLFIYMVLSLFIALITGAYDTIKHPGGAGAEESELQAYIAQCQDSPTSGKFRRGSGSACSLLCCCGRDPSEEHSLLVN
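Calcium fluorescence in TRPML1-DL cells induced overnight with Tet: a 110 s read after compound pin addition, then a 110 s antagonist read after challenge with 54-4 at 4 uM final (EC80).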
gsp antag: qHTS for Antagonists of gsp, the Etiologic Mutation Responsible for Fibrous Dysplasia/McCune-Albright Syndrome: qHTS | gsp-mutant cells, cAMP HTRF, 30 min; control for the full effect not named in the record | Potency, µM (top dose mostly 76.9 µM), without a hit: at the highest dose activity change, negative = inhibition, hits mostly inhibitors | 340,000 tested, 0.4% active | AID 624288, 2012; active = falling curve of any shape with a large fitted effect; inconclusive = falling curve, mostly with a smaller effect; inactive = flat or rising curve; cell line not stated here;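 further: intracellular cAMP measured with PDE inhibitor Ro 20-1724 present during compound exposure; potency means the concentration at half of the fitted maximal effect; on the % scale 0 is the no-effect control and ±100 the full control effect; nearly all actives have a fitted effect of over 65% in size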
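Cells in G418 medium, seeded 16-24 h, 37C; buffer exchange to DPBS + 1 mM CaCl2, 0.5 mM MgCl2, 0.05% BSA; cpds in DMSO + […] (300 uM stock), 30 min 37C; HTRF cAMP detection.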
gsp agonist: qHTS for Agonist of gsp, the Etiologic Mutation Responsible for Fibrous Dysplasia/McCune-Albright Syndrome: qHTS | gsp mutant cells, cAMP HTRF, 30 min; control for the full effect not named in the record | Potency, µM (doses to about 76.9 µM), without a hit: at the top dose activation (cAMP increase), actives largely listed as activators | AID 624287, 2012 | 340,000 tested, 0.13% active; active = well fitted activation curve with a large enough effect; inconclusive = small, poorly fitted or top-dose-only effect, or another doubt; inactive = no such curve, though single readings can be large or run the other way; cell line not stated here;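 further: phosphodiesterase inhibitor Ro 20-1724 added with compounds to block cAMP breakdown; potency means the concentration at half of the fitted maximal effect; nearly all actives have a fitted effect of over 60% in size; about a fifth of the inactives were tested at one dose only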
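Cells stably selected in G418 were plated at 2000/well, grown 16-24 hr, then given compounds in DMSO with the PDE inhibitor […] (300 uM solution added) for 30 min at 37C; cAMP was read by HTRF.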
ClpP mod: qHTS Assay for Activators of ClpP; Potency, µM (titrated, usually from 57.5 µM), for inactives: at the highest dose activity change, negative = active; purified B. subtilis ClpP, FRET peptide cleavage, 20 min; 340,000 tested, 1.9% active; ATP-dependent Clp protease proteolytic subunit (Bacillus subtilis (strain 168)), P80244; active = well fitted falling curve with a large enough effect; inconclusive = small, poorly fitted or top-dose-only effect; inactive = no such curve, though single readings can be large or run the other way; further: potency means the concentration at half of the fitted maximal effect; the source files actives as falling curves though it sought activators and does not explain the sign; nearly all actives have a fitted effect of over 65% in size; many hits overshoot -100%
Target sequence (P80244 whole entry, looked up): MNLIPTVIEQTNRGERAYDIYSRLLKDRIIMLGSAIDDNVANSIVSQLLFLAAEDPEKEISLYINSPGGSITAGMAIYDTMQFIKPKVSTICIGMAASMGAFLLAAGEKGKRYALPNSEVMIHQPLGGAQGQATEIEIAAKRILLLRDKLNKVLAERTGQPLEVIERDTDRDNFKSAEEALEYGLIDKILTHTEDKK
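Purified B. subtilis ClpP, 10 microg/mL final in Tris/HCl pH8 with KCl, BSA, glycerol and Tween-20, cleaved an Abz/nitrotyrosine-quenched decapeptide. Fluorescence (ex 320, em 430) was read at 0 and 20 min at room temperature. Delta was normalized to 5.8 microM ADEP and DMSO/no-enzyme controls.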
Menin MLL FP FL: qHTS Assay for Inhibitors Targeting the Menin-MLL Interaction in MLL Related Leukemias: Competition With Fluorescein Labeled MLL-derived Peptide; Fluorescence polarization, fluorescein-MLL peptide displacement from menin; AID 1766, 2009; FP activity change, % at 61.4 µM; 290,000 tested, under 10 active; inconclusive = falling polarisation curve, or a change in total fluorescence; inactive = total fluorescence flat and polarisation flat or rising; no compound was filed as active; the % refers to the polarisation; negative = inhibition;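 further: % of control where 0% means no effect; inhibitors lower the polarisation; unlabelled MLL peptide was the positive control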
TRPML1 ag: qHTS for Agonists of the Human Mucolipin Transient Receptor Potential 1 (TRPML1). TRPML1-expressing cells, Ca2+ dye fluorescence, FDSS; host cell line not named in the record; reference of the full effect not given here. 410,000 tested, 0.12% active. AID 624414, 2012. activation, % (concentration not given with the values); in the data active = activation above about 50%; inconclusive = about 30% to 50%; inactive = below about 30%; further: 0% is about no effect; the text of the record puts the active cut at 80%
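Cells: TRPML1-DL, 1X Tet inducer, ~16 h at 37 degrees C/5% CO2. Dye: ABD Ca8 no-wash + quencher, 45-90 min RT. Read: 10 s baseline, compound add, 110 s agonist phase; 54-4 EC80 (4uM final), 110 s antagonist phase.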
Starred values were filed as active, the others as inactive; ? = inconclusive; nt = not tested or not shown; & = joins results of further samples; [ ] = dose if it differs, or a comment.

SMILES | TRPML1 inh | gsp antag | gsp agonist | ClpP mod | Menin MLL FP FL | TRPML1 ag
CCOC(=O)c1ccc(NC(=O)CCC(CC)C(=O)O)cc1 (centres undefined) | 12 | -2%[15.4 µM] | 15% | -6.5% | -0.7 | 0.8
COc1ccc(-c2cn3cccc(C)c3n2)cc1F | -3 | -8% | 0%[15.4 µM] | nt | 4.3 | 1.1
Cc1cccc(OCCCC(=O)NNC(=O)c2cccc(N(C)C)c2)c1 | 11 | -3% | -82%[inhibitor] | -6.7% | nt | 0.6
O=C(NCc1cccnc1)C12CC3CC(CC(C3)C1)C2 | -4 | 6% | 4%[15.4 µM] | nt | 1.3 | -0.5
COc1ccc2c(c1)c(=O)oc1cc(OCC(=O)NC3CC3)ccc12 | 29 | 9% | 2% | ? | 0.3 | -0.6
COC(=O)c1cc2n(n1)CCN(Cc1ccc(OC)cc1)C2=O | 20 | 11% | 0% | -0.8% | 1.4 | 0.2
Cc1ccc(CNC(=O)CC2Sc3ccccc3NC2=O)cc1 (centres undefined) | 31 | -5% | 2%[15.4 µM] | nt | -2.3 | -0.3
COc1ccc(CCC(=O)NCCc2csc(-c3ccc(F)cc3)n2)cc1 | -2 | nt | nt | -3.8% | nt | 0.4
NC(=O)Cn1nnc(-c2ccc(CN3CCCCC3)cc2)n1 | -3 | 0% | -19% | 0.9% | -0.4 | 0.7
O=C1CSC(c2ccc3c(c2)OCO3)N1c1ccc(Oc2ccccc2)cc1 (centres undefined) | -15 | 1% | -48% | 0.0% | 2.3 | 1.7
Cc1nc2ccc(NS(=O)(=O)c3ccc(F)cc3)cc2s1 | 7 | nt | 10%[15.4 µM] | nt | -0.2 | -0.1
Cc1cc(-c2ccccc2)c2c(n1)sc1c(O)cc(=O)[nH]c12 | 4 | 11% | ? | -11% | -0.1 | 0.2
O=C(c1ccc(-n2cncn2)c([N+](=O)[O-])c1)N1CCN(S(=O)(=O)c2ccc(Cl)cc2)CC1 | -2 | -11% | -39%[inhibitor] | 1.0% | nt | -0.2
COc1cccc(NC(=O)CCc2nnc3n(Cc4ccccc4Cl)c(=O)c4ccccc4n23)c1 | -3 | nt | nt | 0.3% | nt | -0.2
O=C(Nc1cc2c3c(c1)C1CCCC1CN3CC1CCCC21)c1ccc([N+](=O)[O-])cc1 (centres undefined) | -16 | 18% | -7% | 1.6% | 3.4 | -0.1
C/C(=N/NC(=O)c1cccs1)c1c(C)[nH]n(-c2nc3ccccc3s2)c1=O | -7 | -18% | 17% | ? | 1.0 | -0.2
CCOc1cc(C(=O)Nc2ccc3oc(-c4ccc(F)cc4Cl)nc3c2)cc(OCC)c1OCC | -25 | nt | nt | ? | nt | 2.0
Cc1ccc(S(=O)(=O)N2CCCC2C(=O)Nc2nc3c(s2)CCCC3)cc1 (centres undefined) | -2 | ? | -43%[inhibitor] | 0.6% | 0.3 | 0.5
Cc1ccc(C)c(NC(=O)CSc2nnc3[nH]c(=O)cc(-c4ccccc4)n23)c1 | 18 | nt | nt | -25% | nt | 0.2
CC(/C=C/c1ccccc1)=N\NC(=O)C1CC1(C)c1ccccc1 (centres undefined) | 9 | ? | 8% | 0.2% | -0.3 | 1.0
Cc1ccc(C)c(N2CCN(C(=O)CCS(=O)(=O)c3ccc4c(c3)NC(=O)CO4)CC2)c1 | 8 | 50µM* | 8% | -2.0% | -2.5 | -1.5
C=CCSc1nnc(NC(=O)CSc2ccccn2)s1 | 20 | 0% | -8% | -0.2% | 2.6 | -0.7
CN(Cc1ccccc1)C(=O)C(=O)c1c[nH]c2ccccc12 | -18 | nt | -65%[inhibitor] | 0.2% | nt | -0.8
CCOC(=O)Cc1csc(NC(=O)CC(C)(C)C)n1 | -4 | 3% | -11% | 1.9% | -1.4 | 0.3
CC(C)(C)c1nnc2sc(SCCN3C(=O)c4ccccc4C3=O)nn2c1=O | -4 | 8% | -5% | 1.4% | 0.8 | -0.9
Cc1ccc(-c2nc3cccnc3o2)cc1NC(=O)COc1ccc(Cl)cc1C | 2 | -7% | 39% | ? | 1.2 | -0.1
COc1cc(C#Cc2c(-c3cncn3C)n(C)c3ccc(-c4cc(OC)c(OC)c(OC)c4)cc23)cc(OC)c1 | -2 | 4% | -4% | 3.7% | nt | -1.0
COc1ccc(C(=O)NC(=S)NCc2cccnc2)cc1OC | 5 | -15% | 2% | nt | -0.6 | 1.7
Cc1cccc(N(CC(=O)NC2CCCC2)C(=O)c2cc3cc4cccc(C)c4nc3s2)c1C | -13 | -15% | -1% | -21% | -1.7 | 10
OC1(c2cccs2)CN(c2ccc(Cl)cc2)C2=[N+]1CCCC2 (centres undefined) | 1 | 0% | -12%[15.4 µM] | nt | 2.2 | 0.0
CN(C(=O)c1ccc(COc2ccccc2Br)o1)c1ccccc1 | 47 | -23% | 7% | -2.4% | 1.7 | 8.2
CCCCN1C(=O)C(O)(CC(=O)c2c(C)coc2C)c2ccccc21 (centres undefined) | 15 | 28% | -7% | -0.6% | -6.2 | 0.8
Cc1nn(CC(=O)N2CCN(c3cccc(C(F)(F)F)c3)CC2)c(=O)c2cc3sccc3n12 | -10 | nt | nt | -1.4% | nt | -0.3
O=C(CSc1nnc(COc2ccccc2)o1)Nc1ccc(F)cc1 | -26 | 6% | -7%[15.4 µM] | nt | 1.1 | 0.1
Cc1ccccc1N(CC(=O)Nc1ccccc1C(=O)NCc1ccco1)S(=O)(=O)c1ccccc1 | 24 | -9% | 11% | ? | -0.3 | 1.9
CC(C)(C)C(=O)Nc1ccccc1C(=O)Nc1cccnc1 | -1 | 4% | 16% | -0.8% | -5.5 | -0.2
COc1ccc2c(c1OC)C(=O)N1C2SC(C)(C)[C@H]1C(=O)NC(C)C (some centres undefined) | 3 | -1% | 0% | -19% | -2.3 | 0.0
O=C1N[C@@H](c2ccccc2)COC(=O)[C@H](Cc2ccc(F)cc2)C/C=C\C[C@@H]1CC(=O)N(CCO)Cc1ccccc1 | 58 | ? | -17% | -1.2% | nt | 0.7
COCCCn1c(SCC(=O)Nc2ccc(NC(C)=O)cc2)nc2sc3c(c2c1=O)CCC3 | 14 | -11% | 8% | nt | 3.2 | -0.3
O=C(O)CCSc1ccc2ccccc2n1 | -1&13 | 25%&18% | ? | -6.0%&-2.1% | -1.3&3.3 | 3.7&1.0

Exported as a markdown table: part of the list above
| SMILES | TRPML1 inh | gsp antag | gsp agonist | ClpP mod | Menin MLL FP FL | TRPML1 ag |
| --- | --- | --- | --- | --- | --- | --- |
| Cc1nn(CC(=O)N2CCN(c3cccc(C(F)(F)F)c3)CC2)c(=O)c2cc3sccc3n12 | -10 | nt | nt | -1.4% | nt | -0.3 |
| CN(C(=O)c1ccc(COc2ccccc2Br)o1)c1ccccc1 | 47 | -23% | 7% | -2.4% | 1.7 | 8.2 |

(cont.)
SMILES | TRPML1 inh | gsp antag | gsp agonist | ClpP mod | Menin MLL FP FL | TRPML1 ag
COc1ccc(CNC(=O)COc2ccc(Br)c(C)c2)cc1 | 5 | -1% | -11% | 1.0% | -29 | 2.4
CCOC(=O)c1sc(Nc2cccc(Cl)c2)nc1C | 21 | -9% | 8%[15.4 µM] | nt | -1.4 | 2.8
COC(=O)c1ccc(C(=O)OC)c(NC(=O)CN2CCN(c3ccccc3)CC2)c1 | 5 | -8% | -19% | -1.4% | 7.0 | 0.4
COc1ccc(C(OC(=O)c2ccco2)C(=O)NC2CCCCC2)cc1OC (centres undefined) | 7 | -7% | ? | -0.4% | -0.3 | 0.7
COC(CN(C)S(=O)(=O)c1cc2c3c(c1)CCN3C(=O)CC2)OC | 2 | 19% | -5% | 1.4% | 6.6 | -0.5
NC(=O)OCC(COC(N)=O)c1ccccc1 | 2&5 | -4%&9% | nt | -2.2%&0.7% | 1.4&-0.8&-1.6&-12 | 0.2&-0.7
O=C(COC(=O)CNS(=O)(=O)c1ccccc1)Nc1ccc(Cl)cn1 | -15 | -3% | 18% | -1.3% | -2.4 | 0.2
COc1cccc(CN2CC(C(=O)NCCc3ccccc3C(F)(F)F)CCC2=O)c1 (centres undefined) | 26 | -3% | 20% | -0.9% | -1.5 | 1.1
Cc1nn(CCCC(=O)NCc2ccccc2)c(=O)c2nn(-c3ccccc3)c(C)c12 | 22&-22 | ? | ? | -9.0%&-8.8% | nt | 1.9&1.2
COc1ccc(C(=O)Cc2ccc3c(c2)OCO3)c(O)c1 | -15 | 16% | -6% | 1.7% | -7.2 | 1.4
O=C1OCC(CO)(CO)N=C1NNc1ccc(Cl)c(Cl)c1 | 2 | 3% | -1% | 1.3% | 5.5 | 0.1
O=C1CSc2ccc(S(=O)(=O)N3CCN(c4ccccc4F)CC3)cc2N1 | 25 | -22% | ? | 2.1% | nt | 1.2
Cc1ccc(C)c(N(CC(=O)NC2CCCC2)C(=O)CCCC(=O)Nc2ccccn2)c1 | 3 | 9% | 0% | 0.3% | 1.3 | -1.6
COc1ccc(C2COC(=O)C2=N)c(NC(=O)c2ccc(Cl)cc2)c1 (centres undefined) | -4 | -1% | 4% | 1.6% | 1.5 | 3.0
Cc1ccc(N(CC(=O)NC2CCC(C)CC2)S(=O)(=O)c2cccnc2)cc1 (centres undefined) | 6 | -7% | -43%[inhibitor] | 1.8% | 1.0 | 0.2
O=c1c2ccccc2c2ccccc2c(=O)n1Cc1ccco1 | 0 | 5% | -33% | -3.2% | -1.6 | 1.4
COc1cccc(C2N(c3cccc(Cl)c3)C(=O)C3CCCN32)c1OC (centres undefined) | 8 | 1% | ? | 1.7% | 2.1 | 0.7
Cn1nnnc1SCC(=O)N1CCCc2ccccc21 | 5 | 7% | 0% | 61% | -1.3 | -0.5
Cn1c(SCC(=O)NCC2CCCO2)ncc(C(=O)Nc2ccc(F)cc2)c1=O (centres undefined) | -3 | -1% | -37%[inhibitor] | -0.6% | nt | 0.1
COc1cc(OC)c(NC(=O)CCS(=O)(=O)c2ccc3c(c2)oc(=O)n3C)cc1Cl | 4 | nt | nt | 0.2% | nt | -0.7
CC(C)c1nnc(NC(=O)CSc2ccccc2)s1 | -8 | 5% | 3% | 1.0% | 4.5 | 0.0
CC(C)(C)C1CCc2c(sc(NC(=O)c3cccc(Cl)c3)c2C(N)=O)C1 (centres undefined) | -3 | nt | nt | -11% | nt | -0.1
O=C1CNC(=O)/C(=C/c2cccs2)N1 | 4 | -2% | 4%[15.4 µM] | nt | 6.3 | 0.9
